ClpP mod – qHTS Assay for Activators of ClpP; Potency, µM (top dose mostly 57.5 µM), inactives show at the highest dose activity change, negative = active; ATP-dependent Clp protease proteolytic subunit (Bacillus subtilis (strain 168)), P80244; 1.9% of 340,000 active; purified B. subtilis ClpP, FRET peptide cleavage, 20 min; active = well fitted falling curve with a large enough effect; inconclusive = small, poorly fitted or top-dose-only effect; inactive = no such curve, though single readings can be large or run the other way; note: potency is the fitted concentration of half-maximal effect; the source files actives as falling curves though it sought activators and does not explain the sign; nearly all actives have a fitted effect of over 65% in size; many hits overshoot -100%
Target sequence (P80244 whole entry, looked up): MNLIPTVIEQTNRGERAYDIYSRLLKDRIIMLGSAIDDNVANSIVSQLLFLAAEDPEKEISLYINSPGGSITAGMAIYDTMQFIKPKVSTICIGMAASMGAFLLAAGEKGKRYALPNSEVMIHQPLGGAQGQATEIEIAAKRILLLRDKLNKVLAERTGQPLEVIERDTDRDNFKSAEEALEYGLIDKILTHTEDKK
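Purified B. subtilis ClpP, 10 microg/mL final in Tris/HCl pH8 with KCl, BSA, glycerol and Tween-20, cleaved an Abz/nitrotyrosine-quenched decapeptide. Fluorescence (ex 320, em 430) was read at 0 and 20 min at room temperature. Delta was normalized to 5.8 microM ADEP and DMSO/no-enzyme controls.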
Menin MLL FP FL – inhibitors of human menin-MLL interaction, wild-type MLL peptide; Fluorescence polarization, fluorescein-MLL peptide displacement from menin; FP activity change, % at 61.4 µM; 290,000 tested, under 10 active; AID 1766; inconclusive = falling polarisation curve, or a change in total fluorescence; inactive = total fluorescence flat and polarisation flat or rising; no compound was filed as active; the % refers to the polarisation; negative = inhibition;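 note: % of control where 0% means no effect; inhibitors lower the polarisation; unlabelled MLL peptide was the positive control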
Sfp inh – blocks B. subtilis Sfp PPTase activity. Biochemical Sfp PPTase activity, qHTS. 3.5% of 310,000 active. Potency, µM, without a hit: max response, negative = inhibition, usual class: inhibitors. Q9F4F7; active = well fitted inhibition curve with a large enough effect; inconclusive = small, poorly fitted or top-dose-only effect, or another doubt; inactive = no such curve, though single readings can be large or run the other way;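 note: the enzyme is Sfp with the accession as filed and its product quenches rhodamine fluorescence; potency is the fitted concentration of half-maximal effect; 0% = enzyme reaction without inhibitor and -100% = no enzyme wells; top concentration of the series not given in the record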
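Fluorescence-quenching assay with 15 nM Sfp, 5 uM rhodamine-CoA and 12.5 uM BHQ-2-labelled ybbR peptide in pH 7.6 Hepes/MgCl2 buffer. Enzyme was pre-incubated with compound for 15 min at room temperature. Rate was taken from the 30-min fluorescence change (525/598 nm).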
PINK1 modulator – PINK1 expression modulation; AID 624263; Potency, µM (series often up to 76.6 µM), for the others: at the highest dose activation (PINK1 increase), actives largely listed as activators; 0.2% of 410,000 active; PINK1 immunofluorescence, high-content cytometry, 24 h; active = well fitted activation curve with a large enough effect; inconclusive = small, poorly fitted or top-dose-only effect; inactive = flat fitted curve, though single readings scatter; cell line not stated here;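 note: potency is the fitted concentration of half-maximal effect; % of control where 0% means no effect; nearly all actives have a fitted effect of over 65% in size; a mitochondrial uncoupler was the plate control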
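Cells are seeded, rested 12 hours, then given compound at five concentrations or DMSO for 24 hours. After fixation, blocking and antibody staining, PINK1 amount and mitochondrial localization are scored; CCCP serves as control.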
D2 ag – agonists of human D2 dopamine receptor (beta-arrestin); DiscoveRx PathHunter D2 beta-arrestin, luminescence, 90 min; 100% = 57 uM dopamine signal; 0.084% of 360,000 active; activation, % (no concentration beside the values); AID 624465; P14416; in the data active = activation above about 40%; inconclusive = about 15% to 40%; inactive = below about 15%; note: compound concentration not given in the record; the text of the record calls up to 30% inactive
Target sequence (P14416 whole entry, looked up): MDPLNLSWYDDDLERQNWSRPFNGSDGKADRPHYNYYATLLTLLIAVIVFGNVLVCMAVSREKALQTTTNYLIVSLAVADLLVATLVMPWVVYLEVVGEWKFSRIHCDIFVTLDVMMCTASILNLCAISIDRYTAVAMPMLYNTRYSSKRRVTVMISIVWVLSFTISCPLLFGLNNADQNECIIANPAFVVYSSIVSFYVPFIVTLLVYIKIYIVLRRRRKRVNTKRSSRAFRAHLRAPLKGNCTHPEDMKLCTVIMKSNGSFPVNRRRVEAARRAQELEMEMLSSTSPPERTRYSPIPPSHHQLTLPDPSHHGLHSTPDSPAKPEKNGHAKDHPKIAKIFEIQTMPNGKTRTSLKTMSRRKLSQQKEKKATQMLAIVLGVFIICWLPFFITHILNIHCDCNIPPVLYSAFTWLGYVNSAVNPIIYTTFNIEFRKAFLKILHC
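DiscoveRx PathHunter D2 beta-arrestin cells (2,100/well) attached overnight, then compound-stimulated 90 min at 37 C in HBSS/10 mM HEPES/0.1% Tween-20 buffer; beta-galactosidase complementation read by luminescence after 1 h at ambient temperature. Dopamine 57 uM final (EC100) as control.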
gsp agonist – gsp mutant agonism | gsp mutant cells, cAMP HTRF, 30 min; control for the full effect not named in the record | Potency, µM (series often up to 76.9 µM), without a hit: top-dose activation (cAMP increase), usual class: activators | 0.13% of 340,000 active; active = well fitted activation curve with a large enough effect; inconclusive = small, poorly fitted or top-dose-only effect, or another doubt; inactive = no such curve, though single readings can be large or run the other way; cell line not stated here;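 note: phosphodiesterase inhibitor Ro 20-1724 added with compounds to block cAMP breakdown; potency is the fitted concentration of half-maximal effect; nearly all actives have a fitted effect of over 60% in size; about a fifth of the inactives were tested at one dose only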
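Cells stably selected in G418 were plated at 2000/well, grown 16-24 hr, then given compounds in DMSO with the PDE inhibitor […] (300 uM solution added) for 30 min at 37C; cAMP was read by HTRF.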
gsp antag – antagonizes gsp, the McCune-Albright syndrome mutation; Potency, µM (highest dose often 76.9 µM), without a hit: top-dose activity change, negative = inhibition, hits mostly inhibitors; gsp-mutant cells, cAMP HTRF, 30 min; control for the full effect not named in the record; AID 624288; 0.4% of 340,000 active; active = falling curve of any shape with a large fitted effect; inconclusive = falling curve, mostly with a smaller effect; inactive = flat or rising curve; cell line not stated here;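 note: intracellular cAMP measured with PDE inhibitor Ro 20-1724 present during compound exposure; potency is the fitted concentration of half-maximal effect; % is set by controls: 0 for no effect and ±100 for the full control effect; nearly all actives have a fitted effect of over 65% in size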
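G418-selected cells were plated in DMEM/10% FBS for 16-24 h at 37C, then treated with compounds plus the PDE inhibitor […] (300 uM solution added) for 30 min at 37C. Intracellular cAMP was measured by HTRF after 30 min lysis at room temperature.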
Active calls of the source: *; ? = inconclusive; / = not tested or not shown; [ ] = dose if it differs, or a comment.

SMILES | gsp agonist | Sfp inh | Menin MLL FP FL | ClpP mod | PINK1 modulator | D2 ag | gsp antag
CC1CCCN(c2ccc(/C=C(\C#N)c3nn(-c4ccccc4)c(N)c3C#N)cc2[N+](=O)[O-])C1 (stereo unspecified) | 17% | -2% | -2.2 | 0.6% | 1.3% | -7.8 | ?
CCc1cc2ccc(C)cc2nc1SCC(=O)Nc1c[nH]c(=O)[nH]c1=O | -55%[inhibitor] | 9% | 3.3 | -3.6% | 3.3% | -3.7 | 6%
COc1cccc(Nc2nc3ccccc3n2C(C)C)c1 | 8% | 15% | -1.7 | -0.9% | 7.1% | -1.4 | 1%
O=C(c1ccccc1)N(Cc1ccccc1)Cc1ccccc1 | -17% | 19% | -3.8 | 1.4% | 2.2% | -3.5 | -3%
O=C(OCc1cn([C@@H]2CN(Cc3cccs3)[C@@H](c3ccccc3)C[C@H]2O)nn1)c1ccccc1 | -25% | / | / | -0.1% | 1.0% | -4.7 | /
Cn1c(NCc2cccs2)nc2ccccc21 | 3% | 18% | 3.1 | -1.0% | 1.1% | 0.0 | 3%
CC1CCC(NC(=O)C(NS(=O)(=O)c2ccc(Br)cc2)C(C)C)CC1 (stereo unspecified) | -55%[inhibitor] | / | / | -1.5% | 5.8% | 1.0 | /
Cc1ccc(S(=O)(=O)N(C)C)cc1NC(=O)c1cncc(Br)c1 | -8%[15.4 µM] | -15% | 2.2 | -1.1% | -3.2% | -8.5 | 1%
O=C1CSc2ccc(S(=O)(=O)CCC(=O)NC3CCCCC3)cc2N1 | -17% | 9% | / | -0.2% | 0.0% | -3.4 | 4%
CC(OC(=O)c1ccccc1NCCO)C(=O)NC1CCCCC1C (stereo unspecified) | 15% | / | / | -4.2% | -1.5% | -0.3 | 8%
CN(C)c1nc(N(C)C)n(C(=O)c2ccc(F)cc2)n1 | -20% | 21% | -0.3 | / | 2.6% | 6.5 | -3%
COc1ccc(/C(O)=C2/C(=O)C(=O)N(Cc3cccnc3)C2c2ccncc2)cc1F (stereo unspecified) | 0% | 10% | -0.1 | -0.4% | -2.1% | -4.3 | 14%
CCOC(=O)/C=C/C(=O)Nc1nccs1 | -1% | -11% | 7.1 | -1.3% | 17% | -9.2 | 4%
Cc1cccc(-n2nnc(C(=O)NC3CCCc4ccccc43)c2N)c1 (stereo unspecified) | -53%[inhibitor] | 16% | 1.4 | -0.5% | -0.2% | -1.8 | -11%
CC(C)c1ccc(OCC(=O)NCc2ccco2)cc1 | 1% | 2% | 1.5 | -1.4% | -2.2% | 3.4 | -20%
Cc1ccc(NC(=O)CCn2c(=O)[nH]c3ccsc3c2=O)cc1C | -6% | 12% | -0.7 | / | 1.1% | -6.6 | -19%
O=C(NCCc1ccccc1)C1CCN(C(=O)c2ccc([N+](=O)[O-])cc2)CC1 | -17% | 20% | 3.2 | 1.4% | 0.1% | 11 | 0%
COc1ccccc1NC(=O)c1ccc(S(=O)(=O)N(C)c2ccccc2OC)cc1 | -35%[inhibitor] | / | / | -1.5% | 4.3% | -2.5 | -23%
CN(C)S(=O)(=O)c1cc(NC(=O)COC(=O)CCSc2ccc(Cl)cc2)ccc1Cl | -9% | 23% | / | -0.9% | -0.4% | 1.9 | 3%
O=C(CN1CCN(C(=O)CNC(=O)c2ccc(N3CCCC3=O)cc2)CC1)Nc1cccc(F)c1 | -34%[inhibitor] | / | / | -4.3% | 0.9% | -0.2 | /
Cc1ccc(NC(=O)C(=O)NCC2CCCO2)cc1 (stereo unspecified) | 18% | 17% | 3.0 | 2.0% | -0.1% | -3.2 | 11%
COc1cc2cc(CCCOC(=O)CCCC(=O)O)oc(=O)c2cc1OC | 4% | / | / | ? | -0.4% | -2.7 | 10%
O=C(CSc1nnc(-c2ccc(C(F)(F)F)cn2)s1)c1ccccc1 | -24%[15.4 µM] | 10% | 6.7 | / | 2.9% | -3.1 | -3%
NS(=O)(=O)c1ccc(N2N=C(c3ccccc3)CC2c2ccc(F)cc2)cc1 (stereo unspecified) | ? | 11% | -2.7 | 4.2% | -3.0% | -3.1 | -1%
Cc1ccc(CN(Cc2cccnc2)C(=S)Nc2cccc(Cl)c2C)cc1 | -25% | 20% | 2.4 | -1.4% | 6.1% | -2.4 | -20%
COc1ccc(Cn2cc(F)c(=O)n(CCC(C)C)c2=O)cc1[N+](=O)[O-] | 6% | 1% | 0.2 | -2.8% | 3.0% | 5.2 | 9%
CC1=NN(c2ccccc2)C(=O)C1C(=O)c1cc([N+](=O)[O-])cc([N+](=O)[O-])c1 (stereo unspecified) | -15%[15.4 µM] | 14% | -2.2 | / | 3.4% | 9.4 | -1%
O=Cc1ccccc1OS(=O)(=O)c1ccccc1 | -18% | 1% | -0.7 | -0.6% | 3.9% | 0.8 | 9%
CCN(CC(=O)NCc1ccc(Cl)cc1)C(=O)C(C)Sc1ccccc1 (stereo unspecified) | -39%[inhibitor] | -1% | -6.2 | -0.9% | 2.6% | -4.0 | -6%
Nc1cc2nn(-c3ccccc3)nc2cc1Cl | 15% | 40µM* | 5.4 | -17% | -1.3% | 6.1 | 6%
COc1cc(S(=O)(=O)NCc2ccccn2)ccc1Cl | 4%[15.4 µM] | 7% | -1.2 | -0.1% | 0.7% | 0.7 | 11%
O=Cc1ccc(-c2ccccc2OC(F)(F)F)o1 | 0% | 4% | 3.5 | -12% | 0.2% | 0.3 | 2%
CCOC(=O)c1ccc(Oc2c(C)oc3c(CN4CCN(C)CC4)c(O)ccc3c2=O)cc1 | 16% | 6% | 6.8 | -1.3% | -0.9% | -2.2 | -2%
c1csc(-c2nnc3ccccn23)c1 | ? | 6% | 5.1 | ? | 3.3%[38.3 µM] | -0.3 | 15%
NS(=O)(=O)c1ccc(NC(=S)NC2CC2)cc1 | 16% | 10µM* | -5.0 | -1.8% | -0.4% | 0.0 | 10%
CCCOc1ccc(Cl)cc1CN1CCOCC1 | -2% | -8% | -0.7 | -3.2% | 5.2% | -3.4 | 2%
Cc1cc2ncn(S(=O)(=O)N3CCOCC3)c2cc1C | -14% | -11% | -2.3 | -0.5% | 5.7%[38.3 µM] | -1.9 | -15%
CCCC(CNC(=O)COC(=O)C1=NNC(=O)CC1)c1ccc(Cl)cc1Cl (stereo unspecified) | 2% | / | / | / | 1.6% | 2.5 | 5%
CC(=O)c1ccc(S(=O)(=O)N2CCN(C(=O)CCC3CCCC3)CC2)cc1 | ? | / | / | -1.4% | -6.3% | 0.0 | 6%
Fc1ccc(Oc2ccc3nnc(C(F)(F)F)n3n2)cc1 | 9% | 12% | -5.2 | / | 2.1% | -2.5 | 4%
Cc1c(N=Cc2ccc(-c3ccc(Cl)cc3)o2)c(=O)n(-c2ccccc2)n1C | 16% | -2% | 0.4 | -2.4% | 1.6% | -0.5 | 6%
Cc1ccccc1C(=O)N1CCC(C(=O)NCCc2ccc(S(N)(=O)=O)cc2)CC1 | -6%[15.4 µM] | 6% | 0.3 | / | 2.6% | 1.3 | 7%
CCCN1C(=O)C(NC(C)=O)c2cc(OC)ccc21 (stereo unspecified) | 0% | ? | 1.4 | -1.2% | 1.7% | -0.5 | 22%
COc1ccc(C(C(=O)NC2CCCC2)N(C(=O)CNC(=O)c2ccco2)c2cccnc2)cc1 (stereo unspecified) | 0%[15.4 µM] | 15% | -2.8 | 0.8% | -0.4% | 2.4 | -30%
COc1ccc(/C=N/NC(=O)c2ccc(COc3ccccc3Cl)o2)c(OC)c1C | 4% | 17% | 1.1 | -21% | 0.3% | -1.4 | 1%
COc1cc(NC(=O)c2cc([N+](=O)[O-])ccc2NC(=O)CN2CCN(c3ccccn3)CC2)cc(OC)c1 | -13% | -2% | / | -1.5% | 1.3% | -3.7 | -23%
O=C1/C(=C/c2ccccc2F)SC(=S)N1CCC(=O)N1CCCCC1CCO (stereo unspecified) | -2% | -7% | / | / | 5.4% | 0.7 | -24%
O=C(NCc1ccccc1F)C1CCCN(C(=O)Nc2ccc(F)cc2)C1 (stereo unspecified) | 21% | 19% | -2.3 | / | 1.2% | -1.3 | 0%
COc1ccc(NC2CCCN(C(=O)c3ccc4nccnc4c3)C2)cc1OC (stereo unspecified) | 12%[15.4 µM] | -5% | / | 0.7% | 1.3% | 6.8 | ?
O=C1OCCC1Sc1nc2ccccc2c(=O)n1-c1ccc(F)cc1 (stereo unspecified) | 8%[15.4 µM] | 6% | -4.0 | / | -1.2% | -0.3 | /
CCCCCC(=O)Nc1ccccc1N1CCOCC1 | -26% | 6% | 1.0 | 3.6% | 0.8% | 1.7 | 7%
COC(=O)COc1ccc(Oc2nc(SC)nc(N(C)C)n2)nn1 | -50%[inhibitor] | 19% | 3.2 | 0.6% | 1.5% | -1.5 | -8%
O=C(Cn1c(=O)cnc2ccccc21)Nc1ccccc1N1CCOCC1 | -36%[inhibitor] | ? | / | -4.7% | -0.6% | -1.5 | 6%
COc1ccccc1C(=O)N/C(=C\c1ccc2c(c1)OCO2)C(=O)NCCc1nc2ccccc2[nH]1 | -3% | -3% | 5.1 | 0.6% | -1.1% | -2.2 | -18%
CC(=O)c1nn(-c2cccc(Br)c2)cc1C(=O)c1ccco1 | -25% | 3% | 3.4 | -1.4% | 4.4% | -3.0 | 15%
O=S(=O)(N/N=C1\CC(c2ccccc2)Oc2ccccc21)c1ccccc1 (stereo unspecified) | -22% | 19% | 3.6 | -1.8% | -2.3% | -2.1 | ?
COc1ccc(NC(=O)COC(=O)c2ccc3c(c2)OCO3)c(OC)c1 | -4%[15.4 µM] | / | / | -3.3% | 8.3% | -3.6 | -14%
CCOC(=O)c1[nH]ncc1[C@@H]1C[C@H]2CN(Cc3cccc(Cl)c3)C(=O)[C@]23CCCN13 | 0% | 18% | 1.0 | 1.4% | 0.9% | 0.0 | 16%

Screening data: PubChem BioAssay, National Center for Advancing Translational Sciences (NCATS)

No enrichment for hits. Share with any hit: about 5.1%.
